NPYLR7 ag: mosquito NPYLR7 agonism; HEK293T NPYLR7/Galpha15, GCaMP6s calcium fluorescence; activation, % at 10 µM; 270,000 tested, 0.15% active; in the data active = activation above about 40%;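 note: 0% = vehicle and 100% = reference agonist at the receptor; some compounds past the cut are filed as inactive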
NPYLR7 ag max-min: recorded beside NPYLR7 ag, whose call it bears; activation, %; measured here: Max-Min RFU normalised activation; some inactives read as strong as hits;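 span of the calcium signal over five minutes; 0% = vehicle and 100% = native peptide agonist; compound fluorescence can raise it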
An asterisk follows results filed as active; & = joins results of further samples. The list is partial. The share of hits here may be higher or lower than overall.

structure	NPYLR7 ag	NPYLR7 ag max-min
Cc1cc(C(=O)CCl)c(C)n1-c1ccc(C(C)C)cc1	-5	-7
CN(Cc1ccccc1O)C(=O)Cc1ccc2c(c1)OCO2	9	4
CCCc1c(C(=O)N2CCc3c([nH]c4ccc(OC)cc34)C2COCc2ccccc2)cnn1-c1ccccc1 (stereo not drawn)	6	-2
COc1ccc(-c2c(-c3ccc(OCCN4CCOCC4)cc3O)n[nH]c2C)cc1OC	-5	-9
N#Cc1ccc(CN2CCCC2CC(=O)c2cccs2)cc1 (stereo not drawn)	-4	-5
Cc1ccc(C(=O)N(Cc2nccn2Cc2cccc(C)c2)C2CCCCC2)cc1	37	33
COc1ccc(N2C(=O)CSC2c2cccc(NC(=O)CCl)c2)cc1 (stereo not drawn)	6	16
CC(=O)CCc1ccc(OCCCOc2ccc(Cl)c3cccnc23)cc1	-6	0
O=C(c1cccc(F)c1)N(Cc1nccn1Cc1ccccc1C(F)(F)F)CC1CC1	-1	2
O=C(O)c1c(Sc2ccccc2)c2cc(Cl)ccc2n1Cc1ccc(Cl)cc1	-6	-8
CC(C(=O)NC(=O)NC1CCCC1)N1CCN(Cc2ccsc2)CC1 (stereo not drawn)	-1	0
O=C(O)C1(Cc2cccc(Cl)c2)CCCN(c2ncccc2F)C1 (stereo not drawn)	-3	-3
O=S(=O)(NCc1ccccc1)Nc1ccc(Nc2ccccc2)nc1	-2	2
O=C(COc1ccc(Cl)cc1)N(CC(=O)N1CCc2sccc2C1c1ccc(Cl)cc1)C1CC1 (stereo not drawn)	29	28
Cc1ccc(OC(C)C(=O)N(C)c2ccccc2S(C)(=O)=O)cc1 (stereo not drawn)	12	9
Cn1cnnc1SCCNC(=O)c1csc(-c2cc3ccccc3n2C)n1	-1	-3
CCS(=O)(=O)N1CCN(c2nc(N(C)C)nc3c2CCNC3)CC1	24	16
O=C1C2CC=C(Cl)CC2C(=O)N1c1ncn[nH]1 (stereo not drawn)	2	-3
Cc1ccc(-n2cc(-c3ccccc3)c3c(NCCCN4CCOCC4)ncnc32)cc1Cl	2	1
CCC(C(=O)OC)n1cnc2c(nnn2-c2ccc(C)cc2)c1=O (stereo not drawn)	7	11
Cc1nc(C)c(CN(C)C(C)c2ccc(Cl)cc2)s1 (stereo not drawn)	7	5
COc1cccc(CNC(=O)NCc2ccc(S(=O)(=O)N3CCCCC3)cc2)c1	1	2
CCCCCc1ccc(C(=O)N2CCN(C(=O)CCCCSc3nnc(-c4ccc(C)cc4)n3-c3ccccc3)CC2C)cc1 (stereo not drawn)	-3	7
CCN(CC)C(=O)Cn1nc(C)c(S(=O)(=O)N(C)C)c1C	-1	-4
COc1ccc(C2=NOC(CN(Cc3cccc(C(F)(F)F)c3)C(=O)c3cccc(F)c3)C2)cc1OC (stereo not drawn)	14	14
C/C(=C\c1ccco1)CN1CCC(NS(C)(=O)=O)CC1	-3	2
CN(c1ccccc1)N1CC(C(=O)NC(c2ccccc2)c2ccccn2)CC1=O (stereo not drawn)	-4	-15
CC1CC1C(=O)Nc1ccc(S(=O)(=O)NC(C)C2CC3CCC2C3)cc1 (stereo not drawn)	-2	19
Cc1cc(C)c(C)c(S(=O)(=O)NC(C)C(=O)NC2CCN(C(=O)C3CC3)CC2)c1C (stereo not drawn)	-2	-4
COc1ccc(NC(=O)N2CCCC(C(=O)c3sccc3C)C2)cc1OC (stereo not drawn)	2&11	2&9
O=S1(=O)NC(c2ccc(Cl)cc2)Nc2ccccc21 (stereo not drawn)	9	6
CCOc1ccc2nc(NC(=O)/C=C/c3cn(C)c(=O)n(C)c3=O)sc2c1	-2	-3
COc1ccc(OC)c(NC(=O)c2c(C)noc2C)c1	3	-1
COc1ccc2cc(C(=O)N3CCC(Nc4cccnc4)CC3)c(C)nc2c1	13	11
CC(c1ccccc1F)N(CC(=O)NCc1ccc(Cl)cc1)C1CC1 (stereo not drawn)	15	15
O=[N+]([O-])c1cnn(-c2cnc3ncnn3c2)c1	-9	-16
COc1ccc(C2=N/C(=C\C(Cl)=C\c3ccccc3)C(=O)O2)c(Cl)c1	0	-5
CCNc1ncc(C(=O)NC(C)Cn2nc(C)cc2C)cn1 (stereo not drawn)	6	5
Nc1nc(F)cc(Oc2ccc(I)cc2)n1	11	7
Cc1nc(N2CCCC2)ncc1-c1cc(=O)[nH]c(N2CCCC2)n1	2	0
NC(=O)CSc1nc2[nH]ncc2c(=O)[nH]1	0	0
O=C(O)CN1C(=O)/C(=C/c2ccc(-c3ccccc3Cl)o2)SC1=S	1	-6
CN(CCNc1nc(-c2ccccc2)nc2c1CCNC2)S(C)(=O)=O	6	6
COc1cc(CN2CCCC(C(=O)Nc3cccc(-n4cccn4)c3)C2)ccc1F (stereo not drawn)	6	2
Cc1[nH]nc(SCC(=O)NC2CCCC2)c1[N+](=O)[O-]	-5	-5
CCN(CC1CCCN(CCc2cccc(OC)c2)C1)C1CCN(C(C)=O)CC1 (stereo not drawn)	1	-8
CC(CC(=O)N1CCC(C(N)=O)C1)c1cccc(C(F)(F)F)c1 (stereo not drawn)	5	-1
CCCCCCCCn1c(SCC(=O)OC)nc2c1c(=O)[nH]c(=O)n2C	-1	54
Clc1ccc(-c2nc(CSCc3ccco3)cs2)cc1	10	20
COc1ccc(S(=O)(=O)Oc2cccc(C(C)C)c2)cc1NC(C)=O	7	4

(more compounds)
structure	NPYLR7 ag	NPYLR7 ag max-min
CCOC(=O)c1cccc(NC(=O)NCCc2nc3ccccc3[nH]2)c1	11	7
CCn1c(C2CCN(S(=O)(=O)c3sccc3C)CC2)nn(C)c1=O	10	-2
COc1ccc(NC(=O)NCc2nnc(SCc3ccc(F)cc3)n2-c2ccc(C)cc2)c(OC)c1	1	7
CC(OC(=O)COc1ccc(Cl)cc1)C(=O)N1CCCCCC1 (stereo not drawn)	6	3
C=CCN=c1scc(-c2ccccc2Br)n1N=Cc1ccccn1	-6	2
CCn1ccc2cc(C(=O)NC3CC(=O)N(CCc4ccccc4)C3)ccc21 (stereo not drawn)	4	4
COCC(=O)Nc1cccc(-n2nc(OCCc3ccc(OC)cc3)nc2-c2ccccc2F)c1	24	21
CCCn1c(N2CCN(Cc3ccccc3F)CC2)nc2c1c(=O)[nH]c(=O)n2C	2	1
COc1ccc(-c2cc(C(=O)N3CCN(c4cccc(C(F)(F)F)c4)CC3)c(C)n2-c2ccccc2Cl)cc1	-3	7
CC(NC(=O)C1CCC1)C(=O)NC1CCc2c(Br)cccc21 (stereo not drawn)	-2	0
COc1ccc(OC)c(C2CN(C(=O)C3CC3)CC2C(=O)NC(C)C)c1 (stereo not drawn)	17	7
CCc1ccc2c(c1)c(=O)c(S(=O)(=O)c1ccc(Cl)cc1)cn2CC	-8	-13
O=C(N=Nc1c(O)n(CN2CCCCCC2)c2ccccc12)c1ccncc1	4	3
O=C(O)c1ccc(C2Nc3c(F)cc(F)cc3C3C=CCC32)cc1 (stereo not drawn)	18	17
O=C1c2cc(F)c(N3CCOCC3)c(F)c2SC2=NCCN12	7	7
CC(=O)Oc1c(-c2ccc(NC(=O)C3CCCC3)cc2)c(-c2cccc(C)c2)nn1-c1cccc(F)c1	19	26
Cc1cccc(-c2cc(N)n(-c3ccc(C(=O)NCCc4ccc(S(N)(=O)=O)cc4)cc3)n2)c1	-1	-9
O=C(c1ccc(=O)[nH]n1)N1CCN(C(=O)C2COc3ccccc3O2)CC1 (stereo not drawn)	2	1
CCN(CC)C(=O)Oc1ccc2c(ccn2Cc2ccccc2Cl)c1-c1ccc(C)cc1	9	3
COc1cccc(-c2ccc(NC(=O)C3CCCN(Cc4cc(C(C)C)n[nH]4)C3)cc2)c1 (stereo not drawn)	12	2
Cn1ccc(NC(=O)C23CC4CC(C)(CC(C)(C4)C2)C3)n1	2	47
Cc1cc(C(=O)N2CCN(C(c3ccc(Cl)cc3)c3ccc(Cl)cc3)CC2)n(C(C)(C)C)n1	4	0
CC/C(=N\N1CCOCC1)c1cc(Cl)cc(Cl)c1O	11	9
CCCCc1ccc(N2CC(C)Cn3c2nc2c3c(=O)n(CCCO)c(=O)n2C)cc1 (stereo not drawn)	6	5
Cc1ccc(NC(=O)C2(C)CCN2Cc2ccc(OC(C)C)cc2)cc1 (stereo not drawn)	8	7
OCc1cc(-c2ccc(-c3ccn[nH]3)cc2)ccn1	4	4
CCc1nc2ccc(C(=O)NCc3ccc4c(c3)OCO4)cn2c1N(C)CCCc1ccccc1	16	10
CC1CN(c2cc(Oc3ccccc3Cl)ncn2)CCN1C(=O)c1ccc(F)cc1 (stereo not drawn)	2	5
CCCn1ncc(C(=O)NCCn2nnc3ccccc32)c1C	22	6
Cc1cccc(Nc2nnc(-c3ccncc3)o2)c1	10	4
Cc1ccccc1-c1nc(SCC(=O)Nc2ccc(C(N)=O)cc2)c2c(=O)n(C)c(=O)n(C)c2n1	-2	-8
O=C1/C(=C/c2cccnc2)Oc2cc(OS(=O)(=O)c3ccc(F)cc3)ccc21	6	4
Cn1nc(C(=O)NNC(=O)C2COc3ccccc3O2)c2ccccc2c1=O (stereo not drawn)	-1	0
O=c1c2c3c(sc2nc2n1CCCCC2)CCC3	3	2
O=C(Nc1[nH][nH]c(=O)c1-c1ccccc1)c1ccc(-c2cnco2)cc1	0	-2
c1ccc(-c2ccc(C3=NN(c4ccccc4)C(c4ccccc4)C3)cc2)cc1 (stereo not drawn)	-11	-13
Cc1ccc2cc3c(nc2c1)N(c1ccc(C(=O)O)cc1)CC3	16	15
COC(=O)Cn1c(CN2CCC(C)CC2)nc2c1c(=O)n(C)c(=O)n2C	9	7
CCOc1ccccc1CN(C(=O)c1cccn1C)C1CC1	-6	-12
Cn1c(C(F)(F)F)nc2c1cc(Br)c[n+]2C	-8	-14
Nc1cc(-c2ccc(Cl)c(Cl)c2)nn1-c1ccc(C(=O)NCc2cccs2)cc1	1	-3
N#Cc1c(Cl)cccc1OCCn1cncn1	-1	-3
Cc1ncc(CNC2CC(=O)N(Cc3cccc4ccccc34)C2)n1C (stereo not drawn)	7	5
CC(=O)c1cccc(S(=O)(=O)NC(=O)C(C)NC(=O)C2CCCCC2)c1 (stereo not drawn)	1	-3
COc1cc(NC(=O)N2CCc3ccccc3C2c2ccc(F)cc2)cc(OC)c1OC (stereo not drawn)	8	4
CCCCN(Cc1ccco1)C(=O)c1cc(F)ccc1OC	17	11
COCCNC(=O)Cn1c(CO)cnc1SCC(=O)Nc1cccc(C(F)(F)F)c1	8	4
CCN(CC)CCNC(=O)c1cc(NC(=O)c2ccc(-c3ccccc3)cc2)ccc1N1CCN(c2ccccc2OC)CC1	-9	4
C=CC[C@@H]1CC=C[C@@H](C)N1C(=O)c1cccc(N2CCNC2=O)c1	12	8
CCc1ccc(-c2cc(C(=O)Nc3cccc([N+](=O)[O-])c3)c3ccccc3n2)cc1	4	-3

The list goes on, overlapping the part above by 2 compounds.
structure	NPYLR7 ag	NPYLR7 ag max-min
C=CC[C@@H]1CC=C[C@@H](C)N1C(=O)c1cccc(N2CCNC2=O)c1	12	8
CCc1ccc(-c2cc(C(=O)Nc3cccc([N+](=O)[O-])c3)c3ccccc3n2)cc1	4	-3
Cc1nnc2ccc(NC3CCN(c4ccc(Cl)cc4)C3=O)nn12 (stereo not drawn)	2	0
COc1ccc(CN2CCC(C(=O)NC(C)c3cccc4ccccc34)CC2)cc1 (stereo not drawn)	19	9
O=C(Cn1c(C(F)(F)F)nc2ccccc21)NC1CCCCC1	5	1
C=c1cc(C)n(CC(=O)Nc2cccc(C)c2)c(=O)c1=C1N=C(c2ccccc2)NO1	-1	-6
O=C(CC(c1ccccc1)c1ccccc1F)N1CCCC1 (stereo not drawn)	10	1
CS(=O)(=O)CCNCc1nc(-c2ccc3ncnc(Nc4ccc(OCc5cccc(F)c5)c(Cl)c4)c3c2)cs1	-9	-16

Molecules listed so far that contain an NH in an aromatic ring, in the order listed:
structure	NPYLR7 ag	NPYLR7 ag max-min
CCCc1c(C(=O)N2CCc3c([nH]c4ccc(OC)cc34)C2COCc2ccccc2)cnn1-c1ccccc1 (stereo not drawn)	6	-2
COc1ccc(-c2c(-c3ccc(OCCN4CCOCC4)cc3O)n[nH]c2C)cc1OC	-5	-9
O=C1C2CC=C(Cl)CC2C(=O)N1c1ncn[nH]1 (stereo not drawn)	2	-3
Cc1nc(N2CCCC2)ncc1-c1cc(=O)[nH]c(N2CCCC2)n1	2	0
NC(=O)CSc1nc2[nH]ncc2c(=O)[nH]1	0	0
Cc1[nH]nc(SCC(=O)NC2CCCC2)c1[N+](=O)[O-]	-5	-5
CCCCCCCCn1c(SCC(=O)OC)nc2c1c(=O)[nH]c(=O)n2C	-1	54
CCOC(=O)c1cccc(NC(=O)NCCc2nc3ccccc3[nH]2)c1	11	7
CCCn1c(N2CCN(Cc3ccccc3F)CC2)nc2c1c(=O)[nH]c(=O)n2C	2	1
O=C(c1ccc(=O)[nH]n1)N1CCN(C(=O)C2COc3ccccc3O2)CC1 (stereo not drawn)	2	1
COc1cccc(-c2ccc(NC(=O)C3CCCN(Cc4cc(C(C)C)n[nH]4)C3)cc2)c1 (stereo not drawn)	12	2
OCc1cc(-c2ccc(-c3ccn[nH]3)cc2)ccn1	4	4
O=C(Nc1[nH][nH]c(=O)c1-c1ccccc1)c1ccc(-c2cnco2)cc1	0	-2

Assay outcomes from PubChem BioAssay.
